# Compound activity: PubChem BioAssay, ICCB-Longwood Screening Facility, Harvard Medical School
# MbtI inh: MbtI salicylate synthase inhibition; inhibition, %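 (about 17 µg/mL by stock and volumes)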; AID 493033; purified MbtI enzyme, fluorescence intensity read-out; P9WFX0; actives 0.89% (n = 100,000);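 active = above 50% in both replicates, above 80% if mildly self-fluorescent; inactive = the rest, strongly fluorescent compounds included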;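 note: 0% = mean of negative and 100% = mean of positive controls; one replicate is shown; some compounds called inactive have numbers as strong as hits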
# Target sequence (P9WFX0 whole entry, looked up): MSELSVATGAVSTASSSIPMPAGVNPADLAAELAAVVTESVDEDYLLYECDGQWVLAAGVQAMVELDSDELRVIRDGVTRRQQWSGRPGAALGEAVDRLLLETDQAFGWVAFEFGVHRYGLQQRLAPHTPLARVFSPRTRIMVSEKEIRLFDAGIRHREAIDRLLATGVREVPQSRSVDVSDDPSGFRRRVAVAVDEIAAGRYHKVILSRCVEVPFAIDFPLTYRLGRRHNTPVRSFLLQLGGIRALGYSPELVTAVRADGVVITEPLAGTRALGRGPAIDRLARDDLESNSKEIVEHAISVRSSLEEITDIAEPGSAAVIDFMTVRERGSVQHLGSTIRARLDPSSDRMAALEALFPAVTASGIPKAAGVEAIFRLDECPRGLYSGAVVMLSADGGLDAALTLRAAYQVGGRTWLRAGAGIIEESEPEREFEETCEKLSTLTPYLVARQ
# Mtb MenB inh: inhibitors of Mycobacterium tuberculosis MenB enzyme. actives 0.43% (n = 100,000). inhibition, %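 (about 12 µg/mL by stock and volumes)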. MenB enzyme assay, absorbance read-out; some hits fall short of the stated cut. AID 540299;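 active = mean of two replicates above 30%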;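 note: 0% = no compound and 100% = wells with inactive enzyme; the first replicate is given; strong numbers were not always called active; inactives centre near -10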
# Polio RdRp inh: inhibitors of poliovirus RNA polymerase binding and polymerization; P03300; poliovirus polymerase elongation, fluorescence polarization; stronger effect = lower value; % elongation, % (compound at 16.7 µg/mL); actives 0.66% (n = 150,000); in the data active = % elongation below about 90%; note: some results filed as inactive read as strong as hits
# Target sequence (P03300 1749-2209 limits assumed): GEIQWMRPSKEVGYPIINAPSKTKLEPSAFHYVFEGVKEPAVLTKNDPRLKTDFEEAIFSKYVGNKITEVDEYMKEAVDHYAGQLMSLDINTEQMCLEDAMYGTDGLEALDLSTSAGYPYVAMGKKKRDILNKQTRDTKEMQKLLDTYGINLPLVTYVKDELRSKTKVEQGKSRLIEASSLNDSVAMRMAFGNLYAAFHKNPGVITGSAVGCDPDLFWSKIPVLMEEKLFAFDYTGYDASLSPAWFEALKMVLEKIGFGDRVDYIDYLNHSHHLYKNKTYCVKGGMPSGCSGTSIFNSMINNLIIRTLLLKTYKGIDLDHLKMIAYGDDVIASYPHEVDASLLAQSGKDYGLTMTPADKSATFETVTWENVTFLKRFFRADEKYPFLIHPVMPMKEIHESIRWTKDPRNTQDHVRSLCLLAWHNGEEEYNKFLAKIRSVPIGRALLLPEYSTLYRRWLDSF
# Polio RdRp inh intensity: also measured in Polio RdRp inh; calls as there; % elongation; measured here: total intensity read-out; formula for this scale not given here;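 total fluorescence in place of polarization; lower means less elongation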
# The depositor's hits bear a star; . = not tested or not shown; & = joins results of further samples.
# Fields – MbtI inh, Mtb MenB inh, Polio RdRp inh, Polio RdRp inh intensity
COc1ccc(-c2c(C)oc3c(CN4CCN(C)CC4)c(O)ccc3c2=O)cc1
  109, -10, 103, 103
Cc1ccc(Oc2ccc3c(c2)C(=O)N(CC(=O)O)C3=O)cc1C
  17, -4, 98, 104
COC(=O)CCC/C=C1/SCC(NC(=O)c2ccccc2)/C1=N/O (stereo unspecified)
  -9, -41, 102, 103
COc1ccc(CC(=O)Nc2ncn[nH]2)cc1OC
  -10, -47, 103, 103
Cn1c(CSc2nc3ccccc3s2)n[nH]c1=S
  96, -31, 99, 103
COc1ccc(CNC(=O)c2ccc(Cn3cc(Br)cn3)o2)cc1
  0, 0, 101, 102
O=C(Nc1ccc(Nc2nc3c(S(=O)(=O)c4ccc(Br)cc4)nnn3c3ccccc23)cc1)c1ccco1
  15, -25, 100, 101
CC(C(=O)OCC(=O)Nc1ccccc1)N1C(=O)c2ccccc2C1=O (stereo unspecified)
  -5, -6, 100, 111
Clc1ccc(Oc2ccccc2)c(NC2=NCCC2)c1
  1, -30, 97, 94
Cc1nn2c(-c3ccco3)nnc2c2ccccc12
  34, -13, 101, 104
O=C(Cn1cnc2ccccc2c1=O)N1CCSC1c1ccccc1F (stereo unspecified)
  -2, -11, 102, 101
Cc1cc(C(=O)OCc2nnc(-c3ccccc3)o2)c(C)n1-c1ccccc1
  12, -42, 103, 109
CCCCC/C=C\C/C=C\C/C=C\C=C\[C@H](CCCC(=O)O)OO
  -26, 1, 102&101, 103&103
O=C(O)c1ccc(Cl)c(NC(=O)c2ccco2)c1
  0, ., 99, 94
CCn1cc(C(=O)O)c(=O)c2cc(F)c(N3CCN(C(=O)c4ccccc4F)CC3)cc21
  40, -7, 100, 104
CCCN(CC1CC1)C(=O)c1cc(S(=O)(=O)N(CC)CC)ccc1Cl
  -11, ., 97, 95
COc1cc2ccccc2cc1C(=O)OCC#N
  101, -7, 95, 104
O=C(c1ccccc1)N1CCC(c2nc3ccccc3[nH]2)CC1
  -8, -18, 102, 103
COc1ccccc1S(=O)(=O)Nc1ccc2nc(C)sc2c1
  8, -97, 101, 96
N#Cc1ccc(C(=O)Oc2ccc3ccccc3c2)cc1
  -15, ., 101, 105
CC(NCC(F)(F)F)C1CC1 (stereo unspecified)
  -8, -19, 104, 99
COC(=O)CC1=C(C(=O)OC)C(c2ccc(C(=O)OC)cc2)C(C#N)=C(N)O1 (stereo unspecified)
  -5, 8, 102, 101
COc1ccccc1NC(=O)c1sc2nc(-c3cc4cccc(OC)c4oc3=O)[nH]c(=O)c2c1C
  17, 5, 103, 100
O=C(O)c1ccc2c(c1)sc1[n+]2CCS(=O)(=O)N1
  27, -12, 100, 102
Cc1ccc(-c2cn3c(n2)sc2cc(C(=O)NCCN4CCCC4)ccc23)cc1
  -70, 9, 99, 100
CCCC(=O)Nc1ccc(-c2nc3ccccc3s2)cc1
  ., 0, 102, 104
FC(F)(F)c1cc(-c2ccccc2)nc(NCc2cccnc2)n1
  13, 4, 104, 97
O=C(NCCCn1ccnc1)Nc1cccc2ccccc12
  107, 5, 96, 101
N#Cc1ccc(NC(=O)Cn2cnnn2)cc1
  8, -15, 102, 103
Cc1ccc(/C=C2\C(=O)Nc3ccc(S(=O)(=O)Nc4ccc(F)cc4)cc32)o1
  16, -65, 103, 106
CCC1Oc2ccc(C)cc2NC1=S (stereo unspecified)
  45, -11, 94, 88
O=C(NCCn1cnc2cccnc21)Nc1ccccc1-c1ccccc1
  -2, -3, 89, 125
O=C(CSC1CCCC1)c1ccccc1
  12, 13, 103, 98
O=S(=O)(c1ccc(NCCCn2ccnc2)nc1)N1CCCC1
  -93, 14, 106, 105
CS(=O)(=O)Nc1cc(Cl)ccc1Oc1ccccc1
  -8, 0, 99, 101
O=C(COc1ccc(Cl)cc1Cl)OCC(=O)N1CCCc2ccccc21
  -10, ., 104, 109
CCCc1ncc(C(O)c2ccccc2OC)n1C (stereo unspecified)
  -26, -5, 102, 102
CCc1c(C)nc2c(C)cccc2c1Cl
  5, -43, 102, 99
CNC(=S)Nc1ccc(C(N)=O)cc1
  -1, 1, 102, 101
Cn1/c(=N/N=C2\C(=O)Nc3c(Cl)cc(Cl)cc32)sc2ccccc21
  20, -30, 136, 166
NNC(=O)c1ccc(CSc2nc3ccccc3[nH]2)cc1
  5, -5, 102, 105
CC(C#N)OC(=O)c1cc(S(C)(=O)=O)ccc1Cl (stereo unspecified)
  -3, -3, 104, 111
CC(C(=O)O)N1C(=O)c2ccccc2C1=O (stereo unspecified)
  3, 5, 100, 100
CN(C(=O)CSc1nncc2ccccc12)C1CCCCC1
  8, ., 100, 97
Cc1ccc(Cn2ccsc2=NC(=O)COC(=O)Cn2c(C)csc2=O)cc1
  -5, 0, 105, 109
COc1ccc2o/c(=N\O)c(C(N)=O)cc2c1
  102*, -81, 102, 99
O=C(Oc1nc2ccccc2s1)c1ccccc1C(=O)c1ccccc1
  ., -20, 100, 94
CCN(CC)P1(=S)OC(c2ccc(I)cc2)=Nc2c1c(C)nn2CCC#N (stereo unspecified)
  66, -45, 100, 101
Cc1cc(=O)[nH]c(Nc2nc3ccccc3[nH]2)n1
  5, -10, 102, 101
COc1ccccc1NC(=O)CSc1nncn2c1cc1oc(C)cc12
  12, -33, 102, 94

# Next compounds
# Fields – MbtI inh, Mtb MenB inh, Polio RdRp inh, Polio RdRp inh intensity
CCOC(=O)c1sc2nc(SCC(=O)c3ccc(Br)cc3)n(N)c(=O)c2c1C
  1, 2, 103, 104
Cn1cc(Cl)c(C(=O)NCC(=O)c2ccccc2)n1
  -7, -1, 101, 103
CNS(=O)(=O)c1cc(C(=O)N2CCN(c3ccccc3)CC2)ccc1OC
  3, 12, 102, 101
CC1CCN(C(=O)C2CCN(Cc3cccc(O)c3)CC2)CC1
  10, -3, 100, 102
N#Cc1cccc(CSc2nnc(-c3ccccc3O)n2Cc2ccccc2)c1
  -11, -27, 103, 104
C[N+](C)(Cc1ccc(Cl)cc1)NCc1ccc(Cl)cc1
  -2, ., 101, 95
NC(=O)NN=C1CCN(Cc2ccccc2)CC1
  -3, -2, 104, 102
O=S(=O)(NCCNc1ncnc2scc(-c3ccccc3)c12)c1ccc(Cl)cc1
  -15, -12, 107, 107
CS(=O)(=O)N1CCN(C(=O)COc2ccc(F)c(Cl)c2)CC1
  -14, -2, 102, 102
N#Cc1cc2c(cc1C#N)N1CCCc3cccc(c31)O2
  -5, -3, 82, 141

# Of the compounds above, these have a COOH group:
# Fields – MbtI inh, Mtb MenB inh, Polio RdRp inh, Polio RdRp inh intensity
Cc1ccc(Oc2ccc3c(c2)C(=O)N(CC(=O)O)C3=O)cc1C
  17, -4, 98, 104
CCCCC/C=C\C/C=C\C/C=C\C=C\[C@H](CCCC(=O)O)OO
  -26, 1, 102&101, 103&103
O=C(O)c1ccc(Cl)c(NC(=O)c2ccco2)c1
  0, ., 99, 94
CCn1cc(C(=O)O)c(=O)c2cc(F)c(N3CCN(C(=O)c4ccccc4F)CC3)cc21
  40, -7, 100, 104
O=C(O)c1ccc2c(c1)sc1[n+]2CCS(=O)(=O)N1
  27, -12, 100, 102
CC(C(=O)O)N1C(=O)c2ccccc2C1=O (stereo unspecified)
  3, 5, 100, 100

# Next entries follow.
# Fields – MbtI inh, Mtb MenB inh, Polio RdRp inh, Polio RdRp inh intensity
Cc1onc(-c2ccccc2)c1NC(=O)N1CCN(C2c3ccccc3-c3ccccc32)CC1
  1, 5, 104, 94
CN=c1sc2ccccc2n1CC(O)c1ccccc1 (stereo unspecified)
  -6, -60, 105, 100
CCc1ccc(NC(=O)N2CCC3(CC2)OCCO3)cc1
  -29, -40, 103, 104
CN1C2CCC1CC(NC1CC3CCC(C1)N3C)C2 (stereo unspecified)
  12, -14, 101, 106
CN(c1ccc(OCC(=O)N2CCOCC2)cc1)S(=O)(=O)c1cccs1
  -1, -11, 102, 113
O=C(NCCO)c1ccc(OC2OCCOC2Oc2ccc(C(=O)NCCO)cc2)cc1 (stereo unspecified)
  4, -17, 104, 112
CCN(C(=O)CSc1ccc(S(=O)(=O)N(C)C)cn1)C1=CCCC1
  5, -27, 101, 99
Cc1cc(C)n(-c2ncnc3scc(-c4ccccc4Cl)c23)n1
  12, 15, 106, 102
CC1CC(C)CN(C(=O)c2ccc(N3CCCC3=O)cc2)C1 (stereo unspecified)
  0, 10, 102, 104
Cc1ccnc(NC(=O)Cc2ccc(F)cc2)n1
  -8, -3, 101, 100
CCOC(=O)c1ccc(Nc2nc(Nc3ccc(C(=O)OCC)cc3)nc(N3CCOCC3)n2)cc1
  45, 6, 104, 104
CCOC(=O)C1CCCN(C(=O)CN2C(=O)/C(=C/c3ccc(OC)cc3)Oc3ccccc32)C1 (stereo unspecified)
  7, -8, 101, 101
NC(=O)c1cc(NC(=O)COC(=O)C2CCCCC2)cc(C(N)=O)c1
  6, -3, 101, 101
CCOC(=O)C1CCN(c2ncnc3nc[nH]c23)CC1
  -5, 12, 100, 102
[O-]/[N+](=C/c1ccc(F)cc1)c1ccccc1
  28, 16, 100, 101
Cc1ccc(OCc2n[nH]c(=S)n2C2CCCCC2)cc1
  47, -29, 106, 102
Cc1ccc2c(c1)N(CCC(=O)N1CCC3(CC1)OCCO3)C(=O)CO2
  -3, 7, 101, 102
CC(=O)OC1CC(C)(C)N(OC(=O)c2ccc(-n3cnnn3)cc2)C(C)(C)C1
  ., 0, 96, 90
O=C1Nc2ccccc2C1(O)C/C(=N/O)c1ccc2c(c1)OCCO2 (stereo unspecified)
  -2, -11, 105, 105
CSc1ccc(C2Nc3ccccc3C(=O)N2c2ccc(C)cc2)cc1 (stereo unspecified)
  20, -11, 104, 106
O=C(CCc1nc2ccccc2n1-c1ccccc1)NCCO
  0, -16, 100, 106
CCCCC(=O)Nc1ncc(Br)s1
  0, -18, 104, 99
Cc1ccc(NC(=O)NCCC(C)C)cc1NC(=O)NCCC(C)C
  -7, 1, 101, 109
O=C(CSc1nn2cnnc2s1)N(C1CCCCC1)C1CCCCC1
  -15, -15, 102, 107
O=C(NC1CCCCC1)c1ccc2ccccc2n1
  2, 5, 102, 102
CC(C)Cn1c(=O)c2ccccc2n2c(-c3cc(Cl)ccc3O)nnc12
  -12, -5, 100, 101
O=C(c1cc(F)cc2c1OCOC2)N1CCN(C(c2ccccc2)c2ccccc2)CC1
  2, 6, 99, 98
CCCCSc1nnc(-c2ccco2)n1N
  2, -15, 102, 103
O=S(=O)(c1ccccc1)N1CCC(c2nc(-c3ccccc3)no2)CC1
  -11, 8, 102, 101
NC(=O)C1CCN(c2ncnc3onc(-c4ccc(F)cc4)c23)CC1
  -19, -15, 104, 104
O=C(CNc1ccc(Cl)c(C(F)(F)F)c1)Nc1ccc(N2CCOCC2)cc1
  -14, -13, 102, 109
Cn1nc(C(=O)Nc2nccs2)ccc1=O
  -3, 5, 98, 98
CC(C)C(NC(=O)c1ccccc1)C(=O)N1CCN(C/C=C/c2ccccc2)CC1 (stereo unspecified)
  15, -33, 98, 97
O=C1CSC2(CCCCC2)N1Nc1ccccc1
  ., -13, 105, 107
O=C(/C=C/c1ccccc1)OCC(=O)c1cc2ccccc2o1
  1, ., 108, 103
Cn1nnc2c(NCC(=O)C(C)(C)C)nc(Cc3ccc(Cl)cc3Cl)nc21
  9, 12, 102, 107
COc1ccc(NS(=O)(=O)c2c(C)nc3sccn3c2=O)cc1Cl
  2, 4, 105, 98
CSc1nc2c(=O)n(C)c(=O)n(C)c2n1C
  13, -7, 103, 104
CN(C(=O)Cn1c(=O)n(Cc2ccc(C(=O)NCc3ccco3)cc2)c(=O)c2sccc21)c1ccccc1
  -5, 1, 100, 101
C=C(C)COc1ccc(/C=C(/NC(=O)c2ccccc2)C(=O)O)cc1OC
  4, -9, 102, 107
O=C(O)/C=C1\C(=O)Nc2ccccc21
  -10, ., 101, 99
Cc1cc(C)n(Cc2c(F)cccc2Cl)c(=O)n1
  -4, 9, 100, 102
CCOc1c(Br)cc(C(=O)OCc2nc(N)nc(Nc3ccccc3)n2)cc1OC
  8, -4, 102, 98
CC(SCc1ccccc1)C(=O)NN=C1CCN(C)CC1 (stereo unspecified)
  -6, -10, 99, 100
O=C(Nc1ccnn1C1CCCC1)c1ccc(-n2cccn2)cc1
  -3, -17, 101, 102
C=CCn1c(COc2ccccc2)nnc1SCC(=O)N1CCc2ccccc21
  -14, -37, 104, 102
C=CCSc1ncc(Cl)c(C(=O)Nc2ccc(OC)cc2OC)n1
  -10, -25, 100, 106
CCOc1ccc(CC(=O)Nc2cccc(-c3ccc(N4CCOCC4)nn3)c2)cc1
  13, 12, 101, 102
O=C(O)COc1ccc(C(=O)c2ccccc2)cc1
  17, ., 97, 90
S=c1[nH]c2c(n1-c1ccccc1)CCCC2
  39, -12, 100, 103

# Carrying on.
# Fields – MbtI inh, Mtb MenB inh, Polio RdRp inh, Polio RdRp inh intensity
COc1ccc2cc3cc(C(=O)NCCN4CCN(Cc5ccccc5)CC4)oc3nc2c1
  118, -9, 99, 101
COCC(=O)N(CCc1ccccc1)Cc1cc2cccc(C)c2n2nnnc12
  -15, 5, 102, 100
Cc1c(Cl)cccc1NS(=O)(=O)c1cc2c3c(c1)C(C)C(=O)N3CCC2 (stereo unspecified)
  2, -11, 101, 104
CCCNCc1nc(-c2ccc(Cl)cc2)no1
  -5, 4, 98, 104
Cc1ccc(N=P(N(C)C)(N(C)C)C(C)(C)C)c(C)c1
  -5, -1, 104, 106
Cc1ccc(C2CC(=O)C=C(Nc3ncn[nH]3)C2)cc1 (stereo unspecified)
  2, 7, 104, 107
CCn1c(=O)cc(C(=O)OC)sc1=Nc1ccc(F)cc1
  6, -37, 100, 103
COC(=O)c1cccc(NC(=O)Cc2csc(C)n2)c1
  0, 5, 101, 103
